Bioassay records (PubChem)
StopGo RLuc: FMDV 2A StopGo reporter, Renilla signal | HEK cells with a luciferase reporter of 2A StopGo recoding | Potency, µM (series often up to 57.5 µM), inactives show at the top dose signal change, negative = less light | 0.32% of 120,000 active; active means well fitted falling curve with a large enough effect; inconclusive means small, poorly fitted or top-dose-only effect; inactive means no such curve, though single readings can be large or run the other way; further: nearly all actives have a fitted effect of over 55% in size; overnight with compound
StopGo FLuc: lowers the firefly signal of an FMDV 2A StopGo reporter; HEK cells with a luciferase reporter of 2A StopGo recoding; AID 1745856; Potency, µM (titrated, usually from 57.5 µM), without a hit: top-dose signal change, negative = less light; 0.23% of 120,000 active; active = well fitted falling curve with a large enough effect; inconclusive = small, poorly fitted or top-dose-only effect; inactive = no such curve, though single readings can be large or run the other way; further: nearly all actives have a fitted effect of over 60% in size; overnight with compound
* = called active by the depositor; ? = inconclusive; & = joins results of further samples; [ ] = dose if it differs, or a comment. On the % scale 0 is the no-effect control and ±100 the full control effect; potency means the concentration at half of the fitted maximal effect.

CC1Cc2cc(S(=O)(=O)NCCC(=O)Nc3cccc(C(F)(F)F)c3)ccc2N1C(=O)C1CC1 (stereo not given)
  StopGo RLuc: ?; StopGo FLuc: ?
CC(C)c1noc(C(C)Sc2nc(C3CC3)nc3ccccc23)n1 (stereo not given)
  StopGo RLuc: -19%; StopGo FLuc: 1%
CC(Oc1ccc2ccc(=O)oc2c1)C(=O)Nc1ccc(F)cc1 (stereo not given)
  StopGo RLuc: 3%; StopGo FLuc: 5%
CC(C)(C)OC(=O)N1CCC(c2c(C(=O)N3CCN(c4ncccn4)CC3)cnn2-c2cccc(F)c2)CC1
  StopGo RLuc: -6%; StopGo FLuc: -5%
CC1(C)CC(NC(=O)CCc2ccco2)CC(C)(C)N1
  StopGo RLuc: -4%; StopGo FLuc: -16%
O=C(COc1ccccc1F)Nc1ccc2oc(-c3cccc(Cl)c3)nc2c1
  StopGo RLuc: -12%&12%; StopGo FLuc: 79%&79%[activator]
O=C(NC(C1CC1)C1CC1)c1cccnc1
  StopGo RLuc: 4%; StopGo FLuc: -3%
COc1cc(CNC(=O)C23CC4CC(CC(C4)C2)C3)ccc1OC(F)F
  StopGo RLuc: 18%; StopGo FLuc: -11%
CCc1ccc(C(=O)CC2(O)C(=O)Nc3ccc(F)cc32)cc1 (stereo not given)
  StopGo RLuc: 115%[activator]; StopGo FLuc: 8%
Cc1ccccc1CC(=O)Nc1ccccc1NS(C)(=O)=O
  StopGo RLuc: 26%; StopGo FLuc: 3%
COCCn1c(C)cc(-c2csc(NCc3ccccc3OC)n2)c1C
  StopGo RLuc: 0%; StopGo FLuc: -23%
Cc1ccccc1CNC(=O)CCS(=O)(=O)c1cc2c3c(c1)CCN3C(=O)CC2
  StopGo RLuc: 1%; StopGo FLuc: -3%
CCOc1ccc(C(=O)N[C@H](C(=O)O)C(C)C)cc1
  StopGo RLuc: 24%; StopGo FLuc: 0%
CCCNC(=O)CNC(=O)c1ccc2ccccc2n1
  StopGo RLuc: -2%; StopGo FLuc: 17%
CC(C)CC(NC(=O)Cc1n[nH]c(=O)c2ccccc12)c1ccccc1 (stereo not given)
  StopGo RLuc: -6%; StopGo FLuc: 5%
CSc1ccccc1NC(=O)c1cnn2c(C(F)(F)F)cc(-c3cccs3)nc12
  StopGo RLuc: 13%; StopGo FLuc: 25%
CCCCOc1ccc(OCCCN2CCOCC2)cc1
  StopGo RLuc: -7%; StopGo FLuc: 15%
Cc1ccc(SCC(=O)Nc2cccc(-c3nc4cc(Cl)ccc4o3)c2C)cc1
  StopGo RLuc: 10%; StopGo FLuc: 116%[activator]
COc1ccc(-n2c(SCC(=O)NCc3ccccc3)nc3c([nH]c4ccccc43)c2=O)cc1
  StopGo RLuc: 19%; StopGo FLuc: 4%
CN(Cc1ccccc1)C(=O)CCCc1c[nH]c2ccccc12
  StopGo RLuc: 0%; StopGo FLuc: 0%
COc1ccc(Nc2ccccc2NC(=O)c2ccc3c(c2)NC(=O)CCS3)cc1
  StopGo RLuc: -14%; StopGo FLuc: 4%
O=C(Nc1nnc(S(=O)(=O)N2CCOCC2)s1)c1ccccc1Cl
  StopGo RLuc: -3%; StopGo FLuc: 18%
COc1cc(/C=C(/C#N)C(=O)C(C)(C)C)ccc1OCc1ccc(Cl)cc1
  StopGo RLuc: 5%; StopGo FLuc: 197%[activator]
Cc1ccc(C(=O)Nc2ncn(CC(=O)NCc3ccccc3C)n2)cc1
  StopGo RLuc: -11%; StopGo FLuc: 23%
CCN(CCCNC(=O)c1cc2c(=O)[nH]c3ccc(C)cc3c2s1)c1ccc(C)cc1
  StopGo RLuc: 3%; StopGo FLuc: -1%

CC(NC(=O)c1ccco1)C(=O)Nc1nc(-c2cccc3ccccc23)cs1 (stereo not given)
  StopGo RLuc: -15%; StopGo FLuc: 150%[activator]
Cc1ccc(-c2cn3c(n2)sc2cc(C(=O)NC4CCCCC4)ccc23)cc1
  StopGo RLuc: 5%; StopGo FLuc: 27%
C=CCc1c(C)c2ccc(OCC(=O)c3ccccc3)cc2oc1=O
  StopGo RLuc: 0%; StopGo FLuc: 77%[activator]
CCOc1ccccc1NC(=O)Nc1nnc(N2CCCCCC2)s1
  StopGo RLuc: -10%; StopGo FLuc: 1%
Fc1ccc(-n2nc(-c3ccccc3)c3cnc4ccccc4c32)cc1Cl
  StopGo RLuc: 2%; StopGo FLuc: 5%
CC(C)OCc1ccccc1CNS(=O)(=O)c1cc(F)cc(F)c1
  StopGo RLuc: 149%[activator]; StopGo FLuc: -5%
CCCCOC(=O)c1ccc(NC(=O)c2csnn2)cc1
  StopGo RLuc: -14%; StopGo FLuc: 18%
COc1cccc(NC(=O)CSc2nnc3scc(-c4ccc(Cl)cc4)n23)c1
  StopGo RLuc: 22%; StopGo FLuc: 14%
Cc1cc(Br)ccc1NC(=O)Cn1nc(C(N)=O)c2ccccc2c1=O
  StopGo RLuc: -7%; StopGo FLuc: -4%
CC(=O)c1cc(CC#N)cs1
  StopGo RLuc: 13%; StopGo FLuc: 13%
O=C(NC12CC3CC(CC(C3)C1)C2)C1CCCO1 (stereo not given)
  StopGo RLuc: 3%; StopGo FLuc: 1%
CCCOC(=O)CSc1nnc(-c2ccccc2)o1
  StopGo RLuc: 5%; StopGo FLuc: -4%
O=C(COc1ccccc1Cl)Nc1ccc2oc(-c3ccc(F)cc3)nc2c1
  StopGo RLuc: -9%; StopGo FLuc: 10%
COc1ccc(CC(=O)Nc2ccccc2-c2ccccc2)cc1OC
  StopGo RLuc: ?; StopGo FLuc: ?
COc1ccc(Nc2cc(C)nc3nc(-c4ccccc4C)nn23)c(OC)c1
  StopGo RLuc: ?; StopGo FLuc: ?
Cc1ccc2oc(=O)c3cc(C(=O)N4CCN(c5ccccc5)CC4)sc3c2c1
  StopGo RLuc: -8%; StopGo FLuc: -20%
CN(c1ncnc2c1c(-c1ccccc1)cn2-c1cccc(Cl)c1)C1CCCCC1
  StopGo RLuc: 1%; StopGo FLuc: -8%
C/C(=N\NC(=O)CCc1ccccc1)c1ccc(C)cc1C
  StopGo RLuc: 11%; StopGo FLuc: 7%
CCOC(=O)Cn1c(=O)n2nc(Cc3ccccc3)nc2c2c3c(sc21)COC(C)(C)C3
  StopGo RLuc: 22%; StopGo FLuc: 66%[activator]
Cc1ccc(Cl)c(OCc2n[nH]c(=S)n2CC2CCCO2)c1 (stereo not given)
  StopGo RLuc: ?; StopGo FLuc: 110%[activator]
O=c1cc(CSc2nnc(NC3CC3)s2)c2ccc(O)cc2o1
  StopGo RLuc: 46%[activator]; StopGo FLuc: 81%[activator]
CCCOc1ccccc1C(=O)N(Cc1cccc(OC)c1)C1CCS(=O)(=O)C1 (stereo not given)
  StopGo RLuc: 5%; StopGo FLuc: -10%
CSc1ccc(CN(C)C(=O)NCc2ccc(S(=O)(=O)N3CCCCC3)cc2)cc1
  StopGo RLuc: ?; StopGo FLuc: ?
Cc1ccc(S(=O)(=O)c2nnn(-c3cccc(Cl)c3)c2C)cc1
  StopGo RLuc: 19%; StopGo FLuc: -7%
O=c1oc2ccccc2cc1-c1nc(-c2ccc(Cl)cc2)no1
  StopGo RLuc: -9%; StopGo FLuc: 9%

CCOCC(=O)Nc1nc2c(s1)C(=O)CC(C)(C)C2
  StopGo RLuc: -8%; StopGo FLuc: 5%
CCc1[nH]c2ccc(C(=O)O)cc2c1C
  StopGo RLuc: 0%; StopGo FLuc: 10%
O=C(CN1CCN(C(=O)c2ccccc2-c2ncc(-c3ccccc3)o2)CC1)N1CCCCC1
  StopGo RLuc: 44%[activator]; StopGo FLuc: 4%
O=C(NCCc1ccco1)C1CCN(c2ccc(C(F)(F)F)cn2)CC1
  StopGo RLuc: -2%; StopGo FLuc: -6%
O=C(CN1CCCN(Cc2ccc(F)cc2)S1(=O)=O)NCc1ccccc1Cl
  StopGo RLuc: 39%[activator]; StopGo FLuc: -4%
CCOC(=O)c1c(C)[nH]c(CCC(=O)NCc2ccccc2Cl)c1C
  StopGo RLuc: 78%[activator]; StopGo FLuc: 1%
CSc1ccc(Cl)c(C(=O)Oc2ccc(C)c(C)c2)c1
  StopGo RLuc: 6%; StopGo FLuc: 10%
Cc1ccc(C(=O)OCC(=O)c2ccccc2)s1
  StopGo RLuc: 9%; StopGo FLuc: 181%[activator]
O=S(=O)(NC(c1ccccc1)c1ccccn1)c1cccs1 (stereo not given)
  StopGo RLuc: 0%[1.06 µM]; StopGo FLuc: 8%
O=C(CCC1CCN(Cc2ccccc2)CC1)c1ccc2c(c1)NCCCC2
  StopGo RLuc: -1%; StopGo FLuc: -16%
O=C(c1ccccc1Cl)n1nc(-c2ccco2)nc1NCc1cccs1
  StopGo RLuc: 11%; StopGo FLuc: 74%[activator]
O=C(O)Cc1ccc(N2C(=O)C(=O)/C(=C(/O)c3ccccc3Cl)C2c2ccc(C(=O)O)cc2)cc1 (stereo not given)
  StopGo RLuc: -1%; StopGo FLuc: 28%
O=C(CCc1nnc(C(=O)Nc2cccc(Cl)c2)s1)NCc1ccccn1
  StopGo RLuc: -3%; StopGo FLuc: 19%
N[C@@H](Cc1ccccc1)c1nnc(SCc2ccccc2Cl)o1
  StopGo RLuc: 10%; StopGo FLuc: 34%[activator]
CCN1CCN(C(=O)c2cnn(-c3cccc(Cl)c3)c2C2CCN(C(=O)OC(C)(C)C)CC2)CC1
  StopGo RLuc: -7%; StopGo FLuc: 20%
CC(=O)c1ccc(NC(=O)CN2CCN(c3nc(-c4ccco4)c4c(c3C#N)CCC4)CC2)cc1
  StopGo RLuc: 13%; StopGo FLuc: 30%[activator]
CN(C(=O)c1cc2c(=O)oc3ccccc3c2s1)c1ccc(F)cc1
  StopGo RLuc: -14%; StopGo FLuc: -21%
Cc1ccc(CN(C(=O)c2cc(=O)c3ccccc3o2)C2CCS(=O)(=O)C2)cc1 (stereo not given)
  StopGo RLuc: 14%; StopGo FLuc: 0%
COc1cccc(OC)c1OC(=O)c1ccc(C#N)cc1
  StopGo RLuc: -6%[1.06 µM]; StopGo FLuc: 18%
CCOC(=O)C1=C(C)N=C2SCCC(=O)N2C1c1ccc(OCc2ccccc2)cc1 (stereo not given)
  StopGo RLuc: -10%; StopGo FLuc: -8%
Cc1ccc2nc(-c3cccc(OC(C)C)c3)cc(C(=O)O)c2c1
  StopGo RLuc: ?; StopGo FLuc: 8%
COc1cc(NC(=O)COCc2cc(-c3ccc4c(c3)OCO4)on2)c(OC)cc1Cl
  StopGo RLuc: -17%; StopGo FLuc: -23%
CCCCCCn1c(N(C)C)nc2c1c(=O)[nH]c(=O)n2C
  StopGo RLuc: 2%; StopGo FLuc: 8%
Cc1ccccc1C(=O)NC(NC(C)C)C(Cl)(Cl)Cl (stereo not given)
  StopGo RLuc: -1%; StopGo FLuc: 3%
CC(C)(CNC(=O)C1(c2ccccc2)CCC1)C(N)=O
  StopGo RLuc: -2%; StopGo FLuc: 0%

C=CCSc1ccccc1NC(=O)c1cc(C)c(C)s1
  StopGo RLuc: 4%; StopGo FLuc: 158%[activator]
Cc1sc(N2CC(C(=O)OCC(=O)c3ccc(Br)cc3)CC2=O)nc1-c1ccccc1 (stereo not given)
  StopGo RLuc: -1%; StopGo FLuc: -8%
CC(=O)c1cccc(NC(=O)COC(=O)c2ccccc2OCc2cccc(Br)c2)c1
  StopGo RLuc: -3%; StopGo FLuc: 0%
CN(C)c1cccc(C(=O)OCC(=O)N2c3ccccc3Sc3ccccc32)c1
  StopGo RLuc: 7%; StopGo FLuc: 20%
CNC(=O)COC(=O)c1cc(-c2ccc(C)o2)nc2ccccc12
  StopGo RLuc: -12%; StopGo FLuc: 98%[activator]
Cc1nnc(SCc2c(C(=O)NC(C)C)oc3ccccc23)s1
  StopGo RLuc: 16%; StopGo FLuc: 14%
C#CCNC(=O)c1ccccc1NC(=O)c1cccc2cccnc12
  StopGo RLuc: 6%; StopGo FLuc: -7%
Clc1ccc(Cn2c(CN3CCOCC3)nc3ccccc32)c(Cl)c1
  StopGo RLuc: -20%; StopGo FLuc: -20%
COc1ccc(C(CC(=O)Nc2cccc(F)c2)N2Cc3ccccc3C2=O)cc1OC (stereo not given)
  StopGo RLuc: 232%[activator]; StopGo FLuc: 13%
CC(O)c1ccc(-c2ccc(CNCc3ccc(F)cc3)o2)cc1 (stereo not given)
  StopGo RLuc: 0%; StopGo FLuc: 0%
Cc1cc2oc(C(=O)N3CCOC34CCN(C)CC4)cc(=O)c2cc1C
  StopGo RLuc: -8%; StopGo FLuc: 2%
COc1cccc(CNC(=O)CCn2c(=O)c3cccn3c3cccnc32)c1OC
  StopGo RLuc: -7%; StopGo FLuc: -15%
CCCNC(=O)NC(=O)CN1CCCCC1
  StopGo RLuc: -1%; StopGo FLuc: 8%
Cc1cc(C)c(/C=C2\C(=O)Nc3ccccc32)[nH]1
  StopGo RLuc: -16%; StopGo FLuc: -6%
Cc1ccccc1NC(=O)Cn1c(=O)n(CCCCCC(=O)NCc2ccccc2Cl)c(=O)c2sccc21
  StopGo RLuc: -15%; StopGo FLuc: 27%
N#Cc1c(F)cccc1NCC12CC3CC(CC(C3)C1)C2
  StopGo RLuc: -12%[1.06 µM]; StopGo FLuc: 9%
CCN(c1cccc(C)c1)S(=O)(=O)c1ccc2c(c1)NC(=O)CCS2
  StopGo RLuc: 15%; StopGo FLuc: -1%
